GALR2 ag: agonists of human galanin receptor 2 (GALR2); 140,000 compounds, 0.48% hits; AID 803; activation, %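 (tested at 5 µM)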; GALR2-expressing cells, agonist activation read-out; O43603;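 active = above mean plus 3 SD of all compounds, about 5% in these data, not always enough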;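 also: 0% = vehicle buffer wells and 100% = reference agonist at full effect; tested in CHO reporter cells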
Target sequence (O43603 whole entry, looked up): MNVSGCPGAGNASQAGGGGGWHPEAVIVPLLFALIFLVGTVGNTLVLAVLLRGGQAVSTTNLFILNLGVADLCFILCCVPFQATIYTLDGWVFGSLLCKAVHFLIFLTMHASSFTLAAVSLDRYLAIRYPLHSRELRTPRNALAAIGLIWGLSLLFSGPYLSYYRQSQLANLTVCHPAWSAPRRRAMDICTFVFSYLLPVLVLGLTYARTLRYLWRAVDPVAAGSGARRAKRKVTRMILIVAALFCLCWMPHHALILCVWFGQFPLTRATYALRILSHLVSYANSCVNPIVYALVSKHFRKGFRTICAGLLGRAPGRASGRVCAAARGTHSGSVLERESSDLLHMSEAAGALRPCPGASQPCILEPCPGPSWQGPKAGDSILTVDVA
RGS16-Gao: modulates binding between human RGS16 and Galphao; 220,000 compounds, 0.38% hits; O15492+P09471; binding response (% of control), % at 10 µM; bead-based flow cytometry RGS16-Galphao binding, fluorescence; actives lie on both sides;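 active = below 25% or above 175%, edge rows of some plates excepted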;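 also: Galphao activated by GDP with aluminum fluoride before binding; 100% = wells without compound and 0% = beads without RGS; some results beyond the cut were filed as inactive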
Target sequence (O15492 whole entry, looked up): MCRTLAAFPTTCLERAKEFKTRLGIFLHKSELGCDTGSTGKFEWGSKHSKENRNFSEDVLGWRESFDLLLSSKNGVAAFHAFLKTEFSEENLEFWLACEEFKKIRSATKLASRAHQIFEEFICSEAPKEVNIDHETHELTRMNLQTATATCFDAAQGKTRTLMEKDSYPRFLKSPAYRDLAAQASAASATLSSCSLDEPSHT
Target sequence (P09471 whole entry, looked up): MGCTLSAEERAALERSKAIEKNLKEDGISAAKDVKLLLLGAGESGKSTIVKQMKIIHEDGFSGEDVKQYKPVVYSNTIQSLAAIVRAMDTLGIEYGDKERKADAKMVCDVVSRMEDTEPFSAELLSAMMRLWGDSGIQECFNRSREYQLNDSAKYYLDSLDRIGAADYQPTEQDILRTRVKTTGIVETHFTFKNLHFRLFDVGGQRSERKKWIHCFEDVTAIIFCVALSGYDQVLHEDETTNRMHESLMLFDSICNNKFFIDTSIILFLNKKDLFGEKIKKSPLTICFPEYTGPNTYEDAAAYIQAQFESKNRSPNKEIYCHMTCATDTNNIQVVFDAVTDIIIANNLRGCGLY
HSV augment: increases HSV replication in cells | HSV replication augmentation in cells, fold increase | maximum fold increase | 220,000 compounds, 0.005% hits;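 active = peak rise of 1.5-fold or more in the series; inconclusive = self-fluorescent or not available for retest; tested in PC3 cells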;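 also: first round at 10 µM; read as green reporter fluorescence; hits show the peak of a series up to 25 µM; 1 = signal of infected wells without compound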
INS promoter inh: TRM-6 insulin promoter activity inhibition | AID 1273 | TRM-6 cells (human fetal islet line), insulin promoter-eGFP reporter, imaging; reporter expression induced with tamoxifen | inhibition, % at 2 µM | 130,000 compounds, 0.9% hits;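 active = inhibition above the mean plus 3 SD, with well images judged a real hit on visual review, cut at about 60% in these data, passing the limit was not always enough; inconclusive = inhibition over the cutoff but images rejected on review; inactive = inhibition not above the cutoff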
PKD1 kinase inh: inhibitors of human PKD1 kinase; Q15139; PKD1 kinase fluorescence polarization assay; inhibition, %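 (about 10 µM by stock and volumes)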; 200,000 compounds, 0.056% hits; AID 797;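 active = inhibition of 50% or more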;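 also: controls were vehicle for no effect and a reference inhibitor for full effect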
INS promoter inh cell count: also measured in INS promoter inh; calls as there; normalized cell count, %; measured here: cell count, toxicity; reference of the scale not given here;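 cells exposed to compound for 48 h; stained nuclei by imaging scaled within each plate; lower means fewer cells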
HSV augment primary fold: recorded beside HSV augment, whose call it bears; fold increase; compound at 10 µM; measured here: primary screen fold increase 10 uM; tested in PC3 cells;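 GFP signal in the first replicate; 1 = infected wells without compound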
Numbers without * were called inactive; i = inactive; ? = inconclusive; . = not tested or not shown.

SMILES | GALR2 ag | RGS16-Gao | HSV augment | HSV augment primary fold | INS promoter inh | INS promoter inh cell count | PKD1 kinase inh
CCOC(=O)Cc1c(C)nc2c(-c3cccc(Br)c3)c[nH]n2c1=O | -1.9 | 104 | i | 1 | -181 | 67 | -7
C=CCNC(=O)CN(c1ccc(F)cc1)S(=O)(=O)c1ccc(OC)cc1 | -3.2 | 103 | i | 0.83 | -38 | 145 | -6
CCOc1ccc2nc(C(C)O)[nH]c2c1 (configuration not stated) | -3.6 | 98 | i | 0.94 | 68 | 111 | -5
Cc1[nH]nc(SCC(=O)N2CCOCC2)c1[N+](=O)[O-] | . | 106 | i | 0.87 | -21 | 78 | -6
CCC(=O)N1CCN(c2ccc(NC(=O)c3ccc(Br)o3)cc2)CC1 | 0.2 | 180 | i | 0.97 | 0 | 98 | 0
CSc1ccc(C(=O)C2CCCN(C(=O)c3ccsc3)C2)cc1 (configuration not stated) | . | 98 | i | 1 | 13 | 72 | 1
Cc1nc2ccccc2[nH]c1=O | . | 110 | i | 0.97 | . | . | .
CN(C)c1ccc(NC(=O)C2CCCN(S(=O)(=O)c3ccccc3)C2)cc1 (configuration not stated) | . | 97 | i | 0.9 | . | . | -3
Cn1ncc2c(Nc3ccccc3Cl)nc(Cl)nc21 | . | 102 | i | 1.1 | . | . | .
CC(=O)Nc1ccc(S(=O)(=O)NNC(=O)c2cccc(Cl)c2)cc1 | . | 107 | i | 0.88 | 9 | 40 | -3
CCC(=O)N1c2ccc(S(=O)(=O)CCC(=O)NCc3ccc4c(c3)OCO4)cc2CC1C (configuration not stated) | -3.8 | 103 | . | . | -62 | 59 | -10
Cn1c2ccccc2n2c(=O)c(=O)n(CC(=O)c3ccc(Cl)cc3)nc12 | 0.2 | 104 | i | 1 | -3 | 126 | -1

Reprinted from the part before: 4 entries, followed by the next part.
SMILES | GALR2 ag | RGS16-Gao | HSV augment | HSV augment primary fold | INS promoter inh | INS promoter inh cell count | PKD1 kinase inh
Cn1ncc2c(Nc3ccccc3Cl)nc(Cl)nc21 | . | 102 | i | 1.1 | . | . | .
CC(=O)Nc1ccc(S(=O)(=O)NNC(=O)c2cccc(Cl)c2)cc1 | . | 107 | i | 0.88 | 9 | 40 | -3
CCC(=O)N1c2ccc(S(=O)(=O)CCC(=O)NCc3ccc4c(c3)OCO4)cc2CC1C (configuration not stated) | -3.8 | 103 | . | . | -62 | 59 | -10
Cn1c2ccccc2n2c(=O)c(=O)n(CC(=O)c3ccc(Cl)cc3)nc12 | 0.2 | 104 | i | 1 | -3 | 126 | -1
COC(=O)CCC(NC(=O)c1cc(-c2ccc3c(c2)OCCO3)oc1C)C(=O)OC (configuration not stated) | -0.8 | 97 | i | 0.74 | . | . | -3
S=C(NC1CCCCC1)N1CCOCC1 | . | 105 | i | 0.87 | . | . | .
O=C(Nc1ccc(S(=O)(=O)Nc2ncccn2)cc1)c1cccc(S(=O)(=O)N2CCOCC2)c1 | . | 104 | i | 1.2 | . | . | .
CCOC(=O)C1=C(C)N(c2ccc(OCC)cc2)C(=O)/C1=C\c1ccco1 | . | 101 | i | 0.94 | 25 | 95 | 0
NC(=O)Cn1nc([N+](=O)[O-])nc1Oc1ccc(Br)cc1 | . | 71 | i | 1.1 | . | . | 6
CC12CN3CCN(CC(C3)/C1=N/N=C/c1cccc([N+](=O)[O-])c1)C2 | . | 96 | i | 1 | . | . | .
CC(Nc1n[nH]c(=O)[nH]c1=O)C(=O)N/N=C/c1ccccc1 (configuration not stated) | . | 96 | i | 1.1 | . | . | .
COc1ccc(C2C(C(=O)/C=C/c3ccco3)=C(O)C(=O)N2CCN2CCOCC2)cc1OC (configuration not stated) | . | 87 | i | 0.91 | 46 | 69 | 2
Cc1cc(N2CCCC2=O)ccc1S(=O)(=O)NCCOc1ccccc1 | . | 107 | i | 0.87 | 50 | 69 | -2
O=C(CCC(=O)OCc1ccc(Cl)cc1)Nc1ccccc1 | . | 103 | i | 0.95 | . | . | -13
CCO[C@@H]1OC(C(N)=O)=C[C@H](c2ccc3c(c2)OCO3)[C@H]1CCCO | . | 94 | i | 0.78 | . | . | 10
CC(C)(C)C(=O)OCC1OC(n2cnc(C(N)=O)n2)C(O)C1O (configuration not stated) | -2.7 | 96 | i | 0.98 | 0 | 128 | -3
CN(C(=O)c1cc2nc(-c3ccco3)cc(C(F)(F)F)n2n1)C1CCCCC1 | -0.6 | 35 | i | 0.87 | . | . | -17
CC(NC(=O)Cc1ccccc1[N+](=O)[O-])c1ccccc1 (configuration not stated) | 0.2 | 107 | i | 1.1 | -67 | 67 | 0
CCCn1nc(C(=O)Nc2nnc(CC)s2)c2ccccc2c1=O | . | 100 | i | 0.9 | . | . | -5
CN1/C(=C\C(=O)c2cccnc2)C(C)(C)c2ccccc21 | -0.5 | 102 | i | 0.88 | -63 | 97 | 14
O=C1CCCN1c1ccc(S(=O)(=O)Oc2ccc(Cl)cc2)cc1[N+](=O)[O-] | -2.7 | 100 | i | 0.88 | -4 | 78 | -13
Cc1ccccc1C(=O)N1CCc2c([nH]c3ccccc23)C1C(F)(F)F (configuration not stated) | . | 97 | i | 0.91 | . | . | .
Cc1cc(N2CCN(C(=O)c3ccco3)CC2)c2ccccc2n1 | . | 100 | i | 1.3 | . | . | .
CC(=O)c1sc2nc(CSc3nnnn3-c3ccccc3)[nH]c(=O)c2c1C | . | 101 | ? | . | -25 | 92 | -1
CC(C)OCCCN1CN(S(=O)(=O)c2ccccc2)c2nc3ccccc3nc21 | -0.8 | 108 | i | 1.1 | . | . | -4
Cc1cc(C)c(NC(=O)CSc2nnc(-c3ccncc3)n2Cc2ccco2)c(C)c1 | -0.7 | 96 | i | 0.85 | 22 | 71 | 1
O=C(O)C(Cc1ccccc1)n1c(=S)[nH]c2ccccc2c1=O (configuration not stated) | . | 95 | i | 0.84 | -83 | 63 | 0
C/C(=N/NC(=O)c1ccc(Br)o1)c1ccncc1 | -0.3 | 96 | i | 1.2 | . | . | -11
CC1=CCC(COC(=O)Nc2ccccc2)CC1 (configuration not stated) | -1.4 | 92 | i | 1 | 30 | 98 | -5
CC(C)OC(=O)/C(C#N)=C/c1c[nH]c2ccccc12 | 0.2 | 112 | i | 0.85 | . | . | -7
CCOc1ccc(N2C(=O)C3CCCN3C2=O)cc1 (configuration not stated) | -1.7 | 98 | i | 0.87 | . | . | -1
Oc1ccccc1/C=N/NC(=S)NC1CC2CC1C1C=CCC21 (configuration not stated) | . | 98 | i | 0.82 | . | . | .
CCC(C)NC(=O)C1CCCN(S(=O)(=O)c2ccc(-n3cnnn3)cc2)C1 (configuration not stated) | -0.4 | 102 | i | 0.99 | -50 | 84 | -9
CCOc1ccc(CNn2nnnc2N)cc1 | 0.0 | 104 | i | 0.95 | 43 | 132 | -2
CCOc1ccc(C(=O)Nc2cccc([N+](=O)[O-])c2)cc1Br | 0.6 | 110 | i | 0.64 | -23 | 106 | -1
O=C(CSCc1ccc(Cl)cc1)N/N=C/c1ccco1 | . | 99 | i | 1.1 | . | . | 2
Cc1ccc2c(c1)cc(CN(Cc1cccs1)C(=O)c1ccco1)c1nnnn12 | -0.6 | 122 | i | 0.91 | 45 | 97 | -4
CCn1c(Cn2nnc(-c3ccccc3)n2)nnc1SCC(=O)Nc1ccc(C(C)=O)cc1 | -1.9 | 116 | i | 1.2 | 10 | 100 | 2
COc1ccc2o/c(=N/NC(=O)c3cccs3)c(C(N)=O)cc2c1 | . | 103 | ? | . | -11 | 123 | -6
Cc1c(Cl)cccc1NC(=S)N1CCCN(Cc2ccc(F)cc2)C1 | . | 99 | i | 0.91 | -40 | 120 | 0
CCCCNC(=O)Nc1ccc(C2SCCS2)cc1 | . | 103 | i | 1.2 | . | . | .
CN(C)CCNc1oc(COc2ccc(-c3ccccc3)cc2)nc1C#N | 0.6 | 99 | i | 0.68 | 31 | 96 | -1
O=C(O)C1C2CCC(O2)C1C(=O)Nc1ccc(O)cc1 (configuration not stated) | -0.5 | 116 | i | 0.86 | -10 | 90 | -10
CCOC(=O)c1cncc(C#CCOC(=O)Nc2ccc(OC(F)(F)F)cc2)c1 | . | 102 | i | 1.1 | . | . | .
Cc1cc(=O)[nH]c(=O)n1Cc1ccccc1 | . | 100 | i | 0.94 | . | . | -2
CCn1c2ccccc2c2cc(NC(=O)COC(=O)c3cc(Cl)c(N)cc3OC)ccc21 | . | 97 | i | 0.94 | . | . | .
Cc1ccc2oc(Nc3nc(C)c(C)c(C)n3)nc2c1 | . | 98 | i | 0.93 | . | . | .
COc1cc(NC(=O)CN2CC(c3ccccc3)CC2=O)cc(OC)c1 (configuration not stated) | -0.8 | 104 | i | 0.87 | . | . | -6
CCOC(=O)CON1C(=O)C(=O)N(OCC(=O)OCC)[C@H]2CCCC[C@H]21 | . | 87 | i | 0.94 | . | . | .
COc1ccc(CCN(C)C(=O)c2ccc(S(=O)(=O)NCc3ccco3)cc2)cc1OC | 0.2 | 104 | i | 0.97 | -120 | 116 | 5
O=C(CCCn1c(SCC(=O)c2ccccc2)nc2ccccc2c1=O)NCC1CCCO1 (configuration not stated) | -0.1 | 100 | i | 1.3 | 0 | 57 | -5
Cc1cc(C)nc(NC(=O)/C=C/c2cccs2)c1 | -0.9 | 100 | i | 0.92 | 3 | 73 | 8

The closing 2 records of the part before open the next one:
SMILES | GALR2 ag | RGS16-Gao | HSV augment | HSV augment primary fold | INS promoter inh | INS promoter inh cell count | PKD1 kinase inh
O=C(CCCn1c(SCC(=O)c2ccccc2)nc2ccccc2c1=O)NCC1CCCO1 (configuration not stated) | -0.1 | 100 | i | 1.3 | 0 | 57 | -5
Cc1cc(C)nc(NC(=O)/C=C/c2cccs2)c1 | -0.9 | 100 | i | 0.92 | 3 | 73 | 8
CCn1c(=O)cc(N2CCCCC2)[nH]c1=O | -0.9 | 99 | i | 0.97 | 18 | 96 | -19
COc1ccc(-n2c(Cc3cccn3C)nnc2SCC(=O)Nc2ccccc2OC)cc1 | -1.6 | 98 | i | 0.78 | . | . | -11
Cn1c(SCC(=O)Nc2ccc3nc(SCC(=O)N4CCCC4)sc3c2)nnc1-c1ccc(N)cc1 | -0.4 | 92 | . | . | 11 | 171 | 3
Cc1ccc(C)c2[nH]c(=O)c(C(c3nnnn3CCc3ccccc3)N3CCOCC3)cc12 (configuration not stated) | 0.6 | 102 | i | 0.99 | . | . | 9
CCOC(=O)CN(Cc1sccc1C)C(=O)Nc1ccc(OC)cc1OC | -0.8 | 98 | i | 1 | -14 | 121 | -6
O=C(c1cnn(-c2ccccc2)c1-n1cccc1)N1CCN(C2CCCCC2)CC1 | . | 101 | i | 0.89 | . | . | 5
Cc1ccc(NC2=C(Cl)C(=O)c3ccccc3C2=O)cc1 | 1.1 | 30 | i | 0.71 | 35 | 84 | -10
CCN1C(=O)C(CC(=O)NCCc2ccccc2)N(NC(=O)c2cccnc2)C1=S (configuration not stated) | . | 98 | i | 0.96 | 60 | 123 | -2
COc1cc(Cl)c(C)cc1NC(=O)Cn1c(NCCO)nc2ccccc21 | . | 104 | i | 1 | . | . | .
Oc1ccc(-c2n[nH]c(=S)n2-c2ccc3c(c2)OCCO3)c(O)c1 | 0.0 | 15* | i | 0.84 | 38 | 57 | -2
COc1ccc(NC(=O)c2ccc3c(=O)n(-c4ccc(OC)cc4OC)c(=S)[nH]c3c2)c(OC)c1 | . | 107 | i | 1 | 58 | 78 | -1
CC(Oc1ccc(Cl)cc1)C(=O)Nc1ncccn1 (configuration not stated) | -1.8 | 95 | i | 0.74 | . | . | -1
CC(=O)Nc1ccc(S(=O)(=O)N2CCC(NC(C)=O)(c3cccc(F)c3)CC2)cc1 | -1.0 | 65 | i | 1.1 | 54 | 98 | 14
Cc1cccc(OCc2ccc(C(=O)Nc3ccc(F)cc3)cc2)c1 | -0.3 | 107 | i | 1.1 | . | . | 3
CN(C(=O)COc1ncnc2sccc12)c1ccccc1 | . | 102 | i | 0.94 | 12 | 118 | 4
Cc1cc(O)c(/C=N/Nc2ccccc2)c(=O)o1 | -2.9 | 105 | i | 0.96 | -19 | 102 | 15
CCOC(=O)c1ccc(NC(=O)COC(=O)Cc2csc(-c3ccccc3)n2)cc1 | -1.1 | 77 | i | 1.1 | . | . | -13
Cc1cc(C(=O)N/N=C/c2ccc([N+](=O)[O-])o2)c(C)o1 | . | 103 | i | 0.98 | . | . | .
FC(F)(F)c1nnc2ccc(N3CCOCC3)nn12 | -2.3 | 105 | i | 1 | -24 | 141 | -4

2 records drawn at random from the list so far, as already listed:
SMILES | GALR2 ag | RGS16-Gao | HSV augment | HSV augment primary fold | INS promoter inh | INS promoter inh cell count | PKD1 kinase inh
CCOC(=O)c1ccc(NC(=O)COC(=O)Cc2csc(-c3ccccc3)n2)cc1 | -1.1 | 77 | i | 1.1 | . | . | -13
CC(=O)Nc1ccc(S(=O)(=O)N2CCC(NC(C)=O)(c3cccc(F)c3)CC2)cc1 | -1.0 | 65 | i | 1.1 | 54 | 98 | 14
